# Vaccinia Venus: qHTS for Stage-Specific Inhibitors of Vaccinia Orthopoxvirus: Venus Reporter Primary qHTS; Vaccinia virus Venus reporter expression, fluorescence; Potency, µM (series often up to 36.5 µM), for inactives: at the highest dose activity change, negative = inhibition, hits mostly inhibitors; hit rate 0.46% among 330,000; active means well fitted inhibition curve with a large enough effect; inconclusive means small, poorly fitted or top-dose-only effect; inactive means no such curve, though single readings can be large or run the other way; tested in A549 cells; also: nearly all actives have a fitted effect of over 30% in size; inactives centre near -10
# VACV mCherry inh: qHTS for Stage-Specific Inhibitors of Vaccinia Orthopoxvirus: mCherry Reporter Primary qHTS. Potency, µM (top dose mostly 36.5 µM), for inactives: top-dose activity change, negative = inhibition, hits mostly inhibitors. hit rate 0.63% among 310,000. AID 720579, 2013. Vaccinia virus mCherry reporter infection, fluorescence; about a quarter of the inactives have no number; active = well fitted inhibition curve with a large enough effect; inconclusive = small, poorly fitted or top-dose-only effect; inactive = no such curve, though single readings can be large or run the other way; tested in A549 cells; also: nearly all actives have a fitted effect of over 35% in size; inactives centre near -10
# An asterisk follows results filed as active; i = inactive; u = inconclusive; x = no result given; & = joins results of further samples; [ ] = dose if it differs, or a comment. % is scaled to controls: 0 for no effect and ±100 for the full control effect; potency is read from the fitted curve at half-maximal effect.
SMILES,Vaccinia Venus,VACV mCherry inh
O=C(Oc1ccc2cccc(OC(=O)N3CCOCC3)c2c1)N1CCOCC1,-1%,-6%
COc1ccc(-c2c(C)nn3c(C)cc(C)nc23)cc1,-14%,-16%
CC(=O)N1N=C(c2ccccc2)CC1c1cccc([N+](=O)[O-])c1 (stereo not drawn),-11%,-20%
Cc1nn(CC(=O)NCc2cccs2)c(=O)c2nn(-c3ccccc3)c(C)c12,-5%,u
CN(C(=O)COc1ccc(Cl)cc1)C1(C)CCS(=O)(=O)C1 (stereo not drawn),1%,i
O=C(NCCN1CCOCC1)c1ccc(N2CCCC2)c([N+](=O)[O-])c1,-15%,i
COc1ccccc1NC(=O)CC1Sc2ccc(C(F)(F)F)cc2NC1=O (stereo not drawn),-2%,-16%
Cc1c(O)c(=O)ccn1Cc1ccccc1,u,u
O=C(Cn1nc(-c2cccc(Cl)c2)ccc1=O)NCC1COCCO1 (stereo not drawn),-7%,i
O=C(NCC(=O)N(Cc1ccc(F)cc1)C(C(=O)NCC1CCCO1)c1ccccc1)c1ccco1 (stereo not drawn),-6%,-3%
O=C(COC(=O)c1cc(=O)[nH]c2ccccc12)Nc1ccc(Cl)cn1,-10%,i
COc1ccc(NC(=S)N2Cc3ccccc3-n3nncc3C2)c(OC)c1,-6%,i
Cc1ccccc1NC(=O)c1c(NC(=O)C(F)(F)F)sc2c1CCCCC2,u,u
CCN(CC)CCCNC(=O)c1ccccc1C,-1%,-10%
Cc1ccccc1-n1ncc(C(C)NS(=O)(=O)c2ccccc2Cl)c1C (stereo not drawn),-21%,-1%
O=c1c2ccccc2nc(-c2ccc(-c3ccccc3)cc2)n1-c1ccncc1,-14%,-21%
CCOCCCNC(=O)C(c1ccccc1)N(Cc1cccs1)C(=O)c1ccccc1O (stereo not drawn),-10%,-2%
CCOc1ccccc1CNC(=O)C(CC)n1nc(C)c2c(C)n(-c3ccccc3)nc2c1=O (stereo not drawn),-21%,-23%
Cc1cc(C)cc(N2C(=O)CC(N3CCOCC3)C2=O)c1 (stereo not drawn),-1%,-16%
CCOC(=O)C(=O)N(C)c1c(CC)nc2c(OCc3ccccc3)cccn12,-7%,-8%

# A second format for part of the listing above.
Structure	Vaccinia Venus	VACV mCherry inh
Cc1ccccc1-n1ncc(C(C)NS(=O)(=O)c2ccccc2Cl)c1C (stereo not drawn)	-21%	-1%
O=c1c2ccccc2nc(-c2ccc(-c3ccccc3)cc2)n1-c1ccncc1	-14%	-21%
CCOCCCNC(=O)C(c1ccccc1)N(Cc1cccs1)C(=O)c1ccccc1O (stereo not drawn)	-10%	-2%

# Going on with the list:
SMILES,Vaccinia Venus,VACV mCherry inh
CC(C)(C)C(=O)Nc1cccc(C(=O)c2cccc(NC(=O)C(C)(C)C)c2)c1,-14%,-18%
O=C(NCc1ccco1)c1ccc(-c2ccc3nccn3c2)cc1,0%,-19%
CCOC(=O)N1CCC(NC(=O)c2ccc(N3CCC4(CC3)OCCO4)c([N+](=O)[O-])c2)CC1,-28%,-10%
COc1ccc(CCN2C(=S)N(C)C(=O)C2CC(=O)Nc2ccc(OC)cc2)cc1 (stereo not drawn),-19%,-2%
CC(=O)Nc1ccc(S(=O)(=O)NNC(=O)c2cccc3ccccc23)cc1,u,x
CN(Cc1ccccc1)C(=O)c1cccc(NC(=O)Cc2ccc(NC(=O)C3CCN(C(=O)C4CCC4)CC3)cc2)c1,0%,-15%
CC1CCC2[C@@H](C)C(=O)OC3O[C@]4(C)CCC1C32OO4 (stereo partly drawn),-12%,-20%
CCOC(=O)C1NN=C(C(=O)c2ccccc2)C1c1ccc(OC)cc1 (stereo not drawn),-8%,-13%
CCN(CC)S(=O)(=O)c1ccc(N2CCCC2)c(NC(=O)C2CSC3(C)CCC(=O)N23)c1 (stereo not drawn),-7%,-16%
O=C(O)c1ccc2cccc(O)c2n1,-6%,3%
Cn1c(NC(=O)c2ccco2)c(-c2ccccc2)c(=O)c2ccccc21,-6%,-11%
CCO/N=C(\C)c1c(O)c(CC)c(-c2ccccc2)n(-c2ccccc2)c1=O,-8%,-17%
COc1ccc(Nc2cc(C(=O)NCCCN(C)Cc3ccccc3)c3ccccc3n2)cc1,-23%,u
COc1cc(/C=C/C(=O)OCC(=O)NCC2CCCCC2)ccc1O,-15%,-24%
COC(=O)c1ccc(NC(=S)NC(=O)c2c(Cl)cnn2C)cc1,-7%,i
CCOC(=O)c1c(-c2ccccc2)csc1NC(=O)c1nn(CC)cc1Br,56%[activator],-4%
CCOCCCNC(=O)C(c1ccc(OC)cc1)N(Cc1cccs1)C(=O)c1ccccn1 (stereo not drawn),-8%,i
COC(=O)CNc1nc(-c2ccccc2F)nc2ccccc12,-14%,x
O=C(O)C1CCCCC1C(=O)NCCCN1CCOCC1 (stereo not drawn),-6%,x
CCN(CC)C(=O)c1ccc(NC(=O)c2ccc3c(c2)NC(=O)CS3)cc1,-13%,-11%

# Compound profiles (already shown).
# CCN(CC)C(=O)c1ccc(NC(=O)c2ccc3c(c2)NC(=O)CS3)cc1 in the list: Vaccinia Venus = -13%; VACV mCherry inh = -11%
# CCOCCCNC(=O)C(c1ccc(OC)cc1)N(Cc1cccs1)C(=O)c1ccccn1 (stereo not drawn) in the list: Vaccinia Venus = -8%; VACV mCherry inh = i
# COC(=O)CNc1nc(-c2ccccc2F)nc2ccccc12 in the list: Vaccinia Venus = -14%; VACV mCherry inh = x

# Next section.
SMILES,Vaccinia Venus,VACV mCherry inh
COc1ccc(N2CCN(C(=O)c3cc4cc5ccc(Cl)cc5nc4o3)CC2)cc1,5%,-3%
CSc1nc(O)c(/C=C2\C=Nc3ccccc32)[nH]1,-16%,-12%
COc1ccc(OC)c(-n2c(SCC(N)=O)nnc2-c2c[nH]c3ccccc23)c1,-2%,6%
Cn1nnnc1SCC1=C(C(=O)O)N2C(=O)C(NC(=O)C(OC=O)c3ccccc3)C2SC1 (stereo not drawn),-4%,-7%
Cc1cccc(N(C(=O)c2ccco2)C(C(=O)NC2CCCC2)c2ccco2)c1C (stereo not drawn),-7%,-12%
O=[N+]([O-])c1ccc2nc(-[n+]3c(-c4ccccc4)cc(-c4ccccc4)cc3-c3ccccc3)[nH]c2c1,u,u
Cc1onc(-c2c(Cl)cccc2Cl)c1C(=O)ONC(=O)c1cc(C(F)(F)F)cc(C(F)(F)F)c1,-11%,-10%
Cc1cc(S(=O)(=O)Nc2ccc(-c3ccc(N4CCCCC4)nn3)cc2)c(C)cc1Cl,-12%,-4%
CN(C)CCSc1nnc(-c2ccccc2)o1,-12%,-24%
Brc1ccc(/C=N/Nc2ncnc3c2cnn3Cc2ccccc2)cc1,-13%,x
O=c1[nH][nH]c2c1[C@H](c1ccc(F)cc1)O[C@H](CCC(F)(F)F)C2,0%,17%
C[C@H](NC(=O)c1ccco1)C(=O)Nc1ccc(C#N)cc1,10%,-11%
Cc1ccc(NC(=O)NCc2ccccn2)cc1,-8%,i
COCc1cc(CN2CCN(CCc3ccccc3)C(CCO)C2)ccc1OC (stereo not drawn),-12%,-2%
Cc1nc2ccc(S(=O)(=O)N(CC(=O)Nc3ccc(F)cc3)Cc3ccccc3)cc2s1,-3%,-6%
O=C(O)/C=C/c1cnc[nH]1,-14%,i
O=C(CSc1ccc(Cl)cc1)NC(=O)NCc1ccco1,-17%,-4%
O=C(CSc1ccccn1)Nc1ccc2c(c1)OCCO2,-16%[7.34 µM],i[7.34 µM]
CC1(C(=O)NS(=O)(=O)c2ccc(F)cc2F)CCN1C(=O)Cc1ccccc1Cl (stereo not drawn),-3%,i
Cc1ccsc1/C=N/NC(=O)c1nnn(-c2nonc2N)c1-c1ccc2c(c1)OCO2,-4%,i
CN1CCN(c2ccc(S(=O)(=O)N3CCCCC3)cc2NC(=O)Cc2ccc(Cl)cc2)CC1,-11%,-10%
Cc1cc(=O)oc2cc(OCC(=O)NC3CCCCC3)ccc12,-10%,i
Cc1ccc(C(=O)c2sc3nsc(C)c3c2N)cc1,-29%,x
Cc1cccnc1Nc1nc(-c2ccc(O)cc2O)cs1,-24%,-21%
CN(C)c1ccc(-c2c(-c3ccc4c(c3)OCO4)noc2-c2ccsc2)cn1,-10%&-15%,0%
Cc1ccccc1OCC(=O)N/N=C/c1sc(=O)n(Cc2cccc(C(=O)O)c2)c1Cl,-8%,i
O=C(CSc1nnc(-c2ccncc2)n1Cc1ccco1)Nc1nccs1,-8%,-10%
Cc1cc(NC(=O)CSCC(=O)Nc2cccc(S(=O)(=O)N3CCCCCC3)c2)no1,2%,-14%
COc1ccccc1NC(=O)CN1CCN(CC(=O)Nc2ccc(F)c(F)c2)CC1,-13%,-17%
CCOc1ccc(NC(=O)c2oc3ccccc3c2NC(=O)Cc2ccc(OC)c(OC)c2)cc1,-3%,-5%
Cc1ccc(C(=O)NCCSc2c(C)[nH]c3ccccc23)cc1[N+](=O)[O-],-12%,0%
CCOc1ccc(NC(=O)/C(C#N)=C/c2cn(CC(=O)O)c3ccccc23)cc1,6%,-6%
Cc1ccc(S(=O)(=O)O/N=C2/CCCc3occc32)cc1,-4%,x
CC(=O)c1ccc(S(=O)(=O)Nc2cccc(-c3ccc(N4CCCCC4)nn3)c2)cc1,-16%,-17%
COc1ccccc1N(C(=O)CNC(=O)c1ccco1)C(C(=O)NC1CCCC1)c1ccco1 (stereo not drawn),1%,-1%
CC(=O)CSc1nnc2cc(C)c3cc(C)cc(C)c3n12,-12%,i
CCn1ncc(Br)c1C(=O)Nc1cc(C(=O)OC)ccc1C(=O)OC,-10%,x
COc1ccc(NC(=O)Cn2cc(S(=O)(=O)c3ccccc3)c(=O)c3cc(C)ccc32)cc1Cl,-1%,3%
CCc1cccc(NC(=O)CN2Cc3ccccc3C2=O)c1,-7%,-14%
Nn1c(Nc2ccccc2)nc2sc3c(c2c1=O)CCC3,-10%,-13%

# Reformatted: two of the compounds above.
compound	Vaccinia Venus	VACV mCherry inh
Cc1ccc(S(=O)(=O)O/N=C2/CCCc3occc32)cc1	-4%	x
CC(=O)c1ccc(S(=O)(=O)Nc2cccc(-c3ccc(N4CCCCC4)nn3)c2)cc1	-16%	-17%

# The list continues:
SMILES,Vaccinia Venus,VACV mCherry inh
Cc1cnc(CNc2ncncc2-c2ccc(C(=O)N(C)C)cc2)cn1,-4%,-14%
O=C(NC(Cc1c[nH]c2ccccc12)c1nnc2n1CCCCC2)c1ccc(Cl)cc1 (stereo not drawn),-15%,-2%
CC(=O)c1cccc(NC(=S)NC(=O)c2ccccc2Br)c1,-10%,-16%
COC(=O)C(C)(C)ONC(=O)Nc1ccccc1Br,-9%,-25%
CCCCNC(=O)COc1ccccc1[N+](=O)[O-],-17%,-3%
CN1c2ccc(Cl)cc2C(=O)NC1c1ccc([N+](=O)[O-])s1 (stereo not drawn),-11%[7.34 µM],-28%[7.34 µM]
O=C(Nc1ccc(-c2nc3cc(Cl)ccc3o2)cc1)c1cc2ccccc2o1,-22%,u
C/C(=N\N1CCN(c2ccccc2)CC1)c1cccs1,-20%,-19%
O=C(CSc1nnc(-c2ccc(OC(F)F)cc2)o1)N1CCOCC1,u,16µM*
CCc1ccc2oc(C(=O)N(Cc3cccc(Cl)c3)Cc3ccco3)c(C)c2c1,5%,-6%
CCOC(=O)c1[nH]c2ccccc2c1NC(=O)Nc1ccc(OC)cc1,-19%,x
CN1CCC2(CC1)CC(NC=O)c1ccccc1O2 (stereo not drawn),-11%,5%
CC(C)CNC(=O)COC(=O)c1n[nH]c2ccccc12,-7%,5%
Cc1c(Cl)cnc(NC(=O)COC(=O)c2ccc([N+](=O)[O-])s2)c1Cl,-11%,i
CCCC1=Nc2cc(C(=O)NCCN3CCOCC3)ccc2Sc2ccc(C)cc21,-6%[7.34 µM],i[7.34 µM]
Cc1cnc(CN(C)Cc2c(C(=O)N3CCc4ccccc4C3)nc3ccc(Cl)cn23)[nH]1,-9%,-15%
O=C(NC1(C(F)(F)F)NC(=O)N(C2CCCCC2)C1=O)C1CC1 (stereo not drawn),-6%,-15%
COC(=O)C1=C(c2ccc(OCc3ccccc3)cc2)C[C@@H]2CC[C@H]1N2C(=O)NCc1ccc(OC)cc1,u,u
COc1cccc(OC)c1C(=O)Nc1ccccc1N1CCCCC1,-15%,-21%
COc1cc(SC)ccc1C(=O)Nc1ccc(OCC(=O)N2CCOCC2)cc1,-12%,-19%

# Looked up one by one from above, three records:
SMILES,Vaccinia Venus,VACV mCherry inh
CCOC(=O)c1[nH]c2ccccc2c1NC(=O)Nc1ccc(OC)cc1,-19%,x
CC(C)CNC(=O)COC(=O)c1n[nH]c2ccccc12,-7%,5%
Cc1cnc(CN(C)Cc2c(C(=O)N3CCc4ccccc4C3)nc3ccc(Cl)cn23)[nH]1,-9%,-15%

# More compounds follow:
SMILES,Vaccinia Venus,VACV mCherry inh
O=C(NCC1CCN(Cc2ccccc2)CC1)[C@H]1O[C@@H](n2ccc(=O)[nH]c2=O)[C@H](O)[C@@H]1O,1%,30%
O=C1NC(c2ccc(-c3ccccc3[N+](=O)[O-])o2)C(C(=O)c2ccc(Cl)cc2)C(O)(C(F)(F)F)N1 (stereo not drawn),u,u
CCCCNS(=O)(=O)c1ccc2nc(SCC(=O)Nc3cc(C)cc(C)c3)[nH]c2c1,-29%,-15%
Cc1ccc(NC(=O)CSc2nc3nccnc3c(=O)n2CCc2c[nH]c3ccccc23)cc1,-20%,-11%
OC(c1ccc(F)cc1)(c1ccc(F)cc1)[C@@H]1CCCN1,-15%,x

# Rows were taken by chance; about 0.86% have a hit in one of these screens.
